# ALR H2O2 inh = inhibitors of human sulfhydryl oxidase ALR | P55789 | purified ALR, DTT oxidation, H2O2 HRP-luminol luminescence | inhibition, % (test concentration not listed) | actives 3.8% (n = 290,000);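 active means mean and each replicate at 75% or more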;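 further: stock transfer was 7.5 nL into about 7.5 µL; 0% = neutral wells and 100% = wells with inactivated enzyme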
# Target sequence (P55789 whole entry, looked up): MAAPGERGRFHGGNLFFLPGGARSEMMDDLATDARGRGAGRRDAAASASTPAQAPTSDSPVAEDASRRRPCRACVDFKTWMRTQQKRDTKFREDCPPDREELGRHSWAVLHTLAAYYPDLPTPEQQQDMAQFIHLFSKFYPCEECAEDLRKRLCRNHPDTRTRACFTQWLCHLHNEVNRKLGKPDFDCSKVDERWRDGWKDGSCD
# Beta2AR agonist = activates human beta-2 adrenergic receptor causing internalization; P07550; Am2.2-beta2AR cells, FAP receptor internalization, flow cytometry; reference of the scale not given here; response, % (concentration not given with the values); actives 0.43% (n = 340,000); AID 504454;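 active means response above a set limit, near 3 SD of response in nonfluorescent compounds, cut at about 42% in these data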;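 further: stock transfer was 100 nL into about 11 µL; a reference agonist was the positive control; negative values mostly stem from fluorescent compounds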
# rRNA inh HTS = selective bacterial rRNA inhibition in E. coli. GFP signal change (wild-type ribosome), % (concentration not given with the values). AID 720706. E. coli WT GFP vs humanized-ribosome RFP mutants, fluorescence, 24 h; hits give low values; DMSO median 0, no signal -100. actives 1.6% (n = 350,000);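 active means significant combined selectivity score with lowered wild-type GFP, culture density cut under 30%, mutant RFP and density less affected; inactive means any of these conditions unmet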; further: one replicate is shown; some compounds called inactive have numbers as strong as hits
# E coli growth = inhibitors of Escherichia coli growth; OD600, 23 h; hits give low values; actives 0.21% (n = 330,000); OD600 absorbance (test concentration not listed);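 active means OD600 absorbance below the run mean of sample wells minus 3.6 SD, in any replicate, cut at about 0.56 in these data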;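 further: stock transfer was 300 nL into about 60 µL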
# HNF4A DNA FP = change in binding of human HNF4 alpha to DNA. AID 1224865. actives 0.3% (n = 360,000). activity change, % at 10 µM. P41235. HNF4a-FITC DNA binding, fluorescence polarization, 1 h; in the data active means activity change above about 30%, passing the limit was not always enough;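 further: controls were the assay level and a saturating level of protein; the project sought stronger binding though the title names inhibitors; some compounds called inactive have numbers as strong as hits; positive values seem to mean higher polarization but the record does not say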
# Target sequence (P41235 whole entry, looked up): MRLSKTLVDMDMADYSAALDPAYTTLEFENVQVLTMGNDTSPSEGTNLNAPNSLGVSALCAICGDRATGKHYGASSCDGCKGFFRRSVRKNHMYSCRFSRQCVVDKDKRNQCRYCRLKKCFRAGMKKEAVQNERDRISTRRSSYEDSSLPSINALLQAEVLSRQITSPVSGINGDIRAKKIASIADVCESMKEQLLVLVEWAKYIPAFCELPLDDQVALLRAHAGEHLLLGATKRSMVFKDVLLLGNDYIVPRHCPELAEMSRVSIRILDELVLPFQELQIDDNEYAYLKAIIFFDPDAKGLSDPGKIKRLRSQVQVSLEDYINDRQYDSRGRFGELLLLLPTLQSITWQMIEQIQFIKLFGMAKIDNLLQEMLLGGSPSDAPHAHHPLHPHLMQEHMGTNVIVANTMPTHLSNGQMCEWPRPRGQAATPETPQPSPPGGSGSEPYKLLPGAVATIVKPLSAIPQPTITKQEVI
# FGF22 binding = binders of recombinant human FGF22 by thermal shift | SYPRO orange fluorescence; percent of sucrose octasulfate shift, DMSO zero | calls only at 9.99 µM | actives 1.5% (n = 340,000) | AID 651658;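 active means melting point raised past a set limit in the mean and every replicate; three in four hits are not shown here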
# UCH37 inh = blocks the human deubiquitinase UCH37 | purified proteasome/UCH37, Ub-AMC cleavage fluorescence | inhibition, % (concentration not given with the values) | actives 0.33% (n = 330,000) | AID 588478;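 active means mean of two replicates above 20%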;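 further: 0% = compound-free wells with enzyme and 100% = wells lacking proteasome; stock transfer was 100 nL into about 20 µL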
# Target sequence (Q9Y5K5 whole entry, looked up): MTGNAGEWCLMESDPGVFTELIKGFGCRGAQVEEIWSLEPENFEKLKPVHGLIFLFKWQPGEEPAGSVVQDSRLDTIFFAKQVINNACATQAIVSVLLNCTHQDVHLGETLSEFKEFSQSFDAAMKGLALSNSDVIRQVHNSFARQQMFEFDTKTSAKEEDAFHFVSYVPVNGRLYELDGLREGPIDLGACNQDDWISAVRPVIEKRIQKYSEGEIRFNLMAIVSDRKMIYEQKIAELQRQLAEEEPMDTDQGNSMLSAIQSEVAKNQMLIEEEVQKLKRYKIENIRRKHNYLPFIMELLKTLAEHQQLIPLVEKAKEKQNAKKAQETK
#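 system = Proteasome-associated human UCH37 deubiquitinase | amount = 0.15 nM proteasome as dispensed | medium = pH 7.4 Tris-HCl (50 mM) with ovalbumin, ATP-MgCl2, DTT | incubation = 30 min preincubation with enzyme, 25 min cleavage at room temperature | detection = AMC fluorescence 355/460 nm | read-out basis = percent inhibition | controls = no-proteasome and no-compound wells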
# rRNA inh HTS OD600 = also measured in rRNA inh HTS; calls as there; OD600 change, %; measured here: OD600 growth;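 optical density of the mix in the first replicate; 0 = DMSO median and -100 = no signal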
# rRNA inh HTS RFP = recorded beside rRNA inh HTS, whose call it bears; RFP signal change, %; measured here: RFP humanized mutant strains;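 first replicate; 0 = DMSO median and -100 = no signal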
# Active calls of the source: *; i = inactive; . = not tested or not shown.
UCH37 inh	rRNA inh HTS RFP	rRNA inh HTS OD600	Beta2AR agonist	ALR H2O2 inh	E coli growth	HNF4A DNA FP	FGF22 binding	rRNA inh HTS	molecule
.	1.3	-2	8	12	.	3.1	i	8	Cc1[nH]nc2c1C(c1cccs1)C1=C(CC(C)(C)CC1=O)N2 (configuration not stated)
.	.	.	6	-8	.	0.2	.	.	CC1(C)Cc2c(sc(/N=C/N3CCOCC3)c2C#N)C(C)(C)N1
0.0	-3.3	3	0	-1	0.66	-3.3	i	1	O=C(Cc1ccc(NS(=O)(=O)c2ccc(F)cc2)cc1)NCc1cccnc1
-4.0	.	.	-1	-16	0.66	1.4	.	.	CCCN1CNC(=S)N(c2ccccc2OCC)C1
-1.4	.	.	3	-3	0.71	0.3	.	.	CCOC(=O)C1CCN(C(=O)Nc2ccccc2Cl)CC1
.	-1.7	-24	-2	-25	.	0.3	i	-10	O=C(N/N=C\c1ccncc1)c1ccc(Br)s1
4.6	-3.7	6	-2	.	0.67	2.4	i	3	O=C(COC(=O)c1n[nH]c(=O)c2ccccc12)Nc1ccccc1
-407	.	.	8	-1	0.69	-0.6	.	.	Cc1ccc(-c2nc(CN(C)C)cc(CN(C)C)c2O)cc1
-1.6	.	.	-8	2	0.7	-1.2	.	.	CCOC(=O)N1CCN(C(=O)c2cnc3n(c2=O)CCS3)CC1
2.5	-0.7	-12	3	99*	0.64	-5.3	.	-8	O=C(O)c1ccc(CSc2nc3ccc(NC(=O)c4ccccc4C(=O)O)cc3s2)cc1
3.6	-3.8	4	-8	2	0.7	7.6	i	0	CC(C)Nc1ccc(C(CC(N)=O)NC(=O)c2ccc(Br)cc2)cc1[N+](=O)[O-] (configuration not stated)
1.7	-0.3	0	-3	.	0.67	-4.3	i	4	CSc1ccccc1NC(=O)COC(=O)CCCOc1ccc(C)cc1
1.4	3.7	12	3	-2	0.69	-1.1	i	14	Cc1cc(C)c(NC(=S)N2CCN(c3ccc([N+](=O)[O-])cn3)CC2)cc1C
0.8	.	.	-19	2	0.67	-0.9	.	.	C=CCSC1=N/C(=C\c2cccnc2)C(=O)N1c1ccc(OC)cc1
-23	-0.1	10	-5	-11	0.66	-0.7	i	8	CCc1ccc(S(=O)(=O)c2nnn3c2nc(N2CCOCC2)c2ccccc23)cc1
3.3	7.6	-9	8	.	0.69	-11	i	-1	Cc1oc2c(cc(NS(=O)(=O)c3ccc(F)cc3)c3ccccc32)c1C(=O)O
0.7	-0.5	4	20	.	0.71	0.2	i	4	CC(=O)c1c(C)oc2ccc(NS(=O)(=O)c3ccc(C(=O)O)cc3)cc12
6.2	1.6	6	-6	-2	0.72	8.2	i	9	Cc1csc(SC(C)C(=O)NCc2ccc3c(c2)OCO3)n1 (configuration not stated)
.	.	.	0	-6	.	-0.4	.	.	N#Cc1c(Nc2ccccc2)c(/C=N/N=C/c2ccccc2)c[nH]c1=O
3.6	.	.	8	-10	0.65	-0.7	i	.	COc1ccc(C(=O)NCC(C)(C)CNC(=O)c2ccc(OC)c(OC)c2)cc1OC
0.9	-3.6	-14	8	-1	0.64	2.3	i	-10	CSCCC(=O)N1CCCC(N2CCN(c3cccc(C(F)(F)F)c3)CC2)C1 (configuration not stated)
1.3	-3.1	-9	4	-1	0.7	8.6	i	-3	CCC(C(=O)NCCc1ccc(OC)c(OC)c1)n1nc(C)n2c(cc3occc32)c1=O (configuration not stated)
-0.5	.	.	3	-11	0.72	-2.2	.	.	CCOC(=O)N1CCC(NC(=O)c2ccc(NC(=O)C3CCCO3)cc2)CC1 (configuration not stated)
2.8	3.4	14	-1	-4	0.7	-1.5	i	11	NC12CC3CC(C1)CC(CC(=O)O)(C3)C2
.	2.6	-3	6	5	.	-8.7	i	-9	Cc1ccc(C(=O)N/N=C/c2ccc(-c3ccc(Br)cc3[N+](=O)[O-])o2)o1
1.3	.	.	2	-18	0.64	6.0	.	.	COc1cccc(-c2csc3nnc(SCC(=O)NCc4cccs4)n23)c1
-2.0	-3.3	8	5	8	.	5.8	i	5	CC1(C)CC[C@]2(C(=O)O[C@@H]3O[C@H](CO)[C@@H](O)[C@H](O)[C@H]3O)CC[C@]3(C)C(=CCC4[C@@]5(C)CC[C@H](O[C@@H]6O[C@H](C(=O)O)[C@@H](O[C@H]7OC[C@@H](O)[C@@H](O)[C@@H]7O)[C@H](O)[C@H]6O)C(C)(C)C5CC[C@]43C)[C@@H]2C1 (some centres not stated)
3.7	-1.3	15	-16	4	0.66	-1.0	i	6	Cc1cc(C)n2nc(SCC(=O)Nc3ccccc3C)nc2n1
3.0	.	.	3	1	0.68	2.0	.	.	CCOc1ccc(-c2nnn(CC(=O)Nc3cccc(OC)c3)n2)cc1OCC
1.9	3.4	12	0	-1	0.7	1.7	i	8	CCCN(CCC)C(=O)c1cn(C)c2ccc(S(=O)(=O)N3CCCC3)cc2c1=O

# Rewritten with bars between the fields: part of the list above.
Molecule | UCH37 inh | rRNA inh HTS RFP | rRNA inh HTS OD600 | Beta2AR agonist | ALR H2O2 inh | E coli growth | HNF4A DNA FP | FGF22 binding | rRNA inh HTS
CC1(C)Cc2c(sc(/N=C/N3CCOCC3)c2C#N)C(C)(C)N1 | . | . | . | 6 | -8 | . | 0.2 | . | .
O=C(Cc1ccc(NS(=O)(=O)c2ccc(F)cc2)cc1)NCc1cccnc1 | 0.0 | -3.3 | 3 | 0 | -1 | 0.66 | -3.3 | i | 1
CCCN1CNC(=S)N(c2ccccc2OCC)C1 | -4.0 | . | . | -1 | -16 | 0.66 | 1.4 | . | .
CCOC(=O)C1CCN(C(=O)Nc2ccccc2Cl)CC1 | -1.4 | . | . | 3 | -3 | 0.71 | 0.3 | . | .

# The listing continues:
UCH37 inh	rRNA inh HTS RFP	rRNA inh HTS OD600	Beta2AR agonist	ALR H2O2 inh	E coli growth	HNF4A DNA FP	FGF22 binding	rRNA inh HTS	molecule
.	-1.9	2	.	.	.	4.6	i	7	CCOC(=O)C1(C)CCN1C(=O)c1ccc2c(c1)CCO2 (configuration not stated)
-36	-7.4	0	-3	-4	0.65	1.7	.	3	Cc1c(Cl)c(=O)oc2cc(OCC(=O)NCc3cccs3)ccc12
2.4	-0.2	29	-11	6	0.67	-0.7	i	0	CCOc1cc(C2C(C#N)=C(N)Oc3n[nH]c(-c4ccncc4)c32)cc([N+](=O)[O-])c1O (configuration not stated)
2.3	.	.	9	-14	0.66	7.2	.	.	Cc1ccc(C)c(OCC(O)CN2C(C)CCCC2C)c1 (configuration not stated)
0.6	.	.	5	5	0.69	0.2	.	.	O=C(CP(=O)(CO)CO)c1ccc(Cl)cc1
8.2	-5.2	5	1	-13	0.72	-0.4	i	2	Cc1ccc(-c2nc(-c3ccccc3)no2)c(Cl)c1
2.1	.	.	9	-8	0.75	-0.6	.	.	O=S(=O)(Nc1ccc(S(=O)(=O)N2CCCCC2)cc1)c1ccc(Br)s1
.	14	14	0	.	.	-11	i	8	COc1cc2c(oc(=O)c3cc(C)cc(OC)c32)c2c(C3OC(C)C(O)C(C)(O)C3O)ccc(O)c12 (configuration not stated)
.	2.5	5	-23	-4	.	0.4	i	11	CC(C)Oc1ccccc1/C=N/NC(=O)C1CC1
.	.	.	-6	11	0.67	-11	.	.	CCOC(=O)CC1=C(C(=O)OCC)C(c2ccc(C)o2)C(C#N)=C(N)O1 (configuration not stated)
0.3	.	.	6	-9	0.71	-1.8	.	.	Cc1ccc(NC(=S)N(Cc2cccs2)Cc2cc3cccc(C)c3[nH]c2=O)cc1
1.2	.	.	1	-4	0.72	0.4	.	.	Cc1nc2nc(-c3cccnc3)[nH]n2c(=O)c1C
.	-1.8	3	-2	1	.	3.1	i	-6	CCOc1cc(CNn2cnnc2)cc(Cl)c1OCC(=O)NC(C)(C)C
3.2	-14	-53	27	-2	0.71	0.3	i	-47	CCOC(=O)C1CCN(c2cc3c(cc2NC(=O)c2ccccc2OCC)n(C)c(=O)n3C)CC1
3.4	.	.	-5	-3	0.69	-5.2	.	.	CSc1nnnn1CCn1nnnc1SC
0.4	.	.	-1	-4	0.67	2.4	.	.	COc1ccc(-c2nnc(SCC#N)o2)cc1
0.6	2.1	8	5	.	0.73	-2.3	i	15	COc1ccc(CCN2CC(C(=O)N(C)CCc3cn[nH]c3)CCC2=O)cc1 (configuration not stated)
3.7	23	22	-2	-3	0.7	1.1	i	9	COc1ccc(NS(=O)(=O)c2cn(C)cn2)cc1OC
.	3.7*	2.9*	-5	-11	.	1.8	i	-15*	O=C(CCC(=O)Nc1ccc(Br)cc1)N/N=C/c1ccccc1O
3.0	.	.	19	-5	0.67	-2.9	.	.	COc1ccccc1Nc1nc(N)nc(CSc2nnc(C)s2)n1
6.5	.	.	1	0	0.71	5.9	.	.	CC(=O)/C(C#N)=C1\NC(=O)C(Cc2ccccc2)S1 (configuration not stated)
4.3	.	.	-4	-7	0.72	-2.7	.	.	CCC1Oc2ccccc2N(CC(=O)NCCc2ccc(OC)c(OC)c2)C1=O (configuration not stated)
1.2	.	.	0	4	0.68	-1.8	.	.	COc1ccccc1CNC(=O)Cn1cccc1
2.2	.	.	3	-21	0.63	-0.5	.	.	Cc1nc(C)n(C(C)CC(=O)O)n1 (configuration not stated)
5.1	3.8	-3	13	-8	0.68	1.0	i	5	Cc1ccc(S(=O)(=O)NCCOc2nc(N3CCOCC3)nc(N3CCOCC3)n2)cc1
3.5	.	.	-2	99*	0.65	1.2	.	.	O=C(CS(=O)(=O)c1ccccc1)Nc1nc(-c2ccccc2)cs1
1.4	-1.5	-3	8	4	0.69	-2.5	i	-14	CCOC(=O)c1sc(NC(=O)Cc2c(F)cccc2Cl)nc1C
-3.7	-0.1	0	-12	11	0.64	7.6	i	3	CC(=O)Nc1ccc(C(=S)NCC2(N(C)C)CCCCC2)cc1
-2.3	.	.	2	-2	0.78	-2.5	.	.	N/C(=N\c1nc2ccccc2o1)NC(=O)C(Cc1ccccc1)N1C(=O)c2ccccc2C1=O (configuration not stated)
.	.	.	-11	-2	.	-0.5	.	.	COc1ccc(/C=N/NC(=O)c2cccc(Br)c2)cc1Cn1cc(Cl)cn1
8.3	0.4	-3	-1	.	0.73	-2.6	i	6	O=C1/C(=C\c2ccncc2)SC(=S)N1C1CCCCC1
.	3.0	6	71*	.	.	3.9	i	8	COC(=O)c1ccc(N2CCN(C)CC2)c(NC(=O)c2sc3ccccc3c2Cl)c1
5.6	0.7	1	-19	9	0.7	-1.1	i	-3	O=C(NC(=S)NCC1CCCO1)c1cccs1 (configuration not stated)
.	2.5	8	.	.	.	-0.4	i	6	O=C(c1ccccc1)N1CCN(c2cc(Cl)nc3cc(-c4cccc(Cl)c4)nn23)CC1
0.1	0.3	12	-1	0	0.63	2.2	i	12	O=C(Nc1ccccc1F)c1cc(C(=O)Nc2ccccc2F)cc([N+](=O)[O-])c1
0.9	.	.	0	-5	0.68	-4.3	.	.	CN(c1cccc(NS(=O)(=O)c2cccs2)c1)S(C)(=O)=O
-2.3	0.7	-5	2	2	0.72	3.7	i	5	CCCN(CC(=O)Nc1ccc(F)c(F)c1F)Cc1cc(=O)n2ccsc2n1
2.0	-1.3	-11	-5	3	0.67	1.1	i	-12	C=C(C)COc1ccc(-c2ncncc2-c2ccc(OC)cc2)c(O)c1
.	1.7	8	.	.	.	0.2	i	15	Cc1ncc(CO)n1Cc1ccc(Cl)cc1
0.8	4.5*	-5.3*	1	-8	0.62	-3.8	i	-28*	CCOc1ccc(NC(=S)NNC(=S)Nc2cccc(C(F)(F)F)c2)cc1

# Not all compounds are listed. The share of hits here may be higher or lower than overall.
